KCNQ2 pot: enhances the rat KCNQ2 potassium channel; CHO-K1 KCNQ2, FluxOR thallium flux fluorescence; active compounds read high; 0.54% of 310,000 active; B-score at 10 µM;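 active means fluorescence ratio B-score at least 3 SD of library B-scores, with initial fluorescence B-score within 3 SD, cut at about 5.3 in these data; same plate scores as AID 2156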;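 further: B-score of peak minus minimum over baseline fluorescence ratio after K+ and Tl+ stimulus; positive B-score means potentiation of KCNQ2 with more thallium influx and brighter signal; only the inactives scoring about 0 or higher are listed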
Target sequence (O88943 whole entry, looked up): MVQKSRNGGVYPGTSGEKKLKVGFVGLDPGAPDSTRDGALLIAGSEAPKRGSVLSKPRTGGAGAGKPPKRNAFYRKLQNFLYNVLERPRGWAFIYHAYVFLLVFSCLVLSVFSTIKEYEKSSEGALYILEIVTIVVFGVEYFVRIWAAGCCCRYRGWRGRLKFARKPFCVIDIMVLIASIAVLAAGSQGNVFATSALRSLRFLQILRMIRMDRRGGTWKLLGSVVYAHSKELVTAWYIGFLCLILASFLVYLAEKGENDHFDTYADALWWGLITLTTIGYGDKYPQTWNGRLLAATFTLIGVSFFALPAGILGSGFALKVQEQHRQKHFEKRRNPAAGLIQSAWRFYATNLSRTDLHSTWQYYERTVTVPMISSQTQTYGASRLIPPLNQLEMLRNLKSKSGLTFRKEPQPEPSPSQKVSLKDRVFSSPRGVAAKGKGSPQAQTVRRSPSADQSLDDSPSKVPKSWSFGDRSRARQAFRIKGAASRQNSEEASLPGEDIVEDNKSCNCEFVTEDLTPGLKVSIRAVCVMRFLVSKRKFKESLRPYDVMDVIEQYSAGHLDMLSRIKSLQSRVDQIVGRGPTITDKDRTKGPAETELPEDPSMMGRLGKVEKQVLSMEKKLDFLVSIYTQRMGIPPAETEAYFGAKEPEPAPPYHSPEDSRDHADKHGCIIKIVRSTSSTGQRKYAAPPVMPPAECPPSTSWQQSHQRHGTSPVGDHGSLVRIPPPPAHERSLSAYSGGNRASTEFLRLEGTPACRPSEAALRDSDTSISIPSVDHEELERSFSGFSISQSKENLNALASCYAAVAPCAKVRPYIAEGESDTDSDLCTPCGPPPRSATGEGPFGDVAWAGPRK
KCNQ2 pot baseline: also measured in KCNQ2 pot; calls as there; B-score; compound at 10 µM; measured here: initial fluorescence intensity artifact check;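 brightness before thallium and not channel activity; 0 = typical well and far values either way flag optical interference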
* = called active by the depositor; x = no result given. These rows are one share of the data; rates above refer to the full screens.

smiles,KCNQ2 pot,KCNQ2 pot baseline
OCCNc1nc(SCc2ccccc2)nc2sc3c(c12)CCC3,0.19,0.01
COC(=O)Cc1ccc(NC(=S)N2CCN(c3ccc(F)cc3)CC2)cc1,2.1,0.36
CC(=O)Oc1ccc(N(c2ccccc2)S(=O)(=O)c2ccc(C)cc2)cc1,0.14,-0.27
COC(=O)c1cc(S(=O)(=O)N2CCOCC2)ccc1Sc1ccccc1N,0.04,0.77
Cc1nc(N)sc1N=Nc1c(C)n(C)n(-c2ccccc2)c1=O,0.99,-0.75
CCOC(=O)c1c(-c2ccccc2)oc2ccc(OCC(O)CN(C)C)cc12 (centres undefined),-5.6,x
CCOc1ccc(NC(=O)CSc2nnc(Cc3cccn3C)n2-c2ccc(F)cc2)cc1,1.2,-0.61
O=c1[nH]c(SCCOc2ccccc2)nc2ccccc12,1.3,1.8
NCCCn1c(C(=O)c2cc(Cl)c(N)c(Cl)c2)c2ccccc2[n+]1[O-],0.3,2
COc1ccc(-c2cc(N3CCCC3)n3ncnc3n2)cc1,0.07,0.54
CCn1c(=Nc2ccc(N3CCOCC3)cc2)ccc2ccccc21,0.22,-0.89
CC(=O)CCC(=O)N1CCC(n2nccc2NC(=O)c2ccccc2C)CC1,0.13,0.27
CS(=O)(=O)N1CCN(c2ccccc2NC(=O)c2cccs2)CC1,0.88,0.01
COc1ccc(Cl)cc1NC(=S)NCCO,2.2,-0.45
CCCCOc1ccc(C(=O)NCC(=O)NCC(c2ccc(F)cc2)N2CCOCC2)cc1 (centres undefined),1.3,1.1
CCC(C)(C(=O)NC1CCCC1)N(C(=O)c1ccccn1)c1ccccc1 (centres undefined),1.1,0.97
COc1cc(/C=N/NC(=O)c2cc(-c3ccc4c(c3)OCO4)n[nH]2)ccc1O,0.29,0.81
CCOC(=O)N1N=C(c2ccc(OC)cc2)CC1(O)C(F)(F)F (centres undefined),0.04,0.07
CCOc1ccc(OCC)c(Nc2cc(C)nc3ncnn23)c1,0.01,-0.62
CCOc1cc2[nH]c(=S)n(CC3CCCN3CC)c(=O)c2cc1OCC (centres undefined),0.03,-0.78

(cont.)
smiles,KCNQ2 pot,KCNQ2 pot baseline
Cc1ccc(-c2ccc(CCC(=O)O)n2NC(=O)c2cccs2)cc1,0.15,-0.03
CN(C)/N=C/c1ccc(N2CCOCC2)cc1,2.5,-1.1
CCC(C)C(NC(N)=O)C(=O)NC1CCC(C)CC1 (centres undefined),1.1,0.04
Cc1ccc(O)c(NC(=S)NC(=O)/C=C/c2ccccc2)c1,0.67,2.5
Cc1ccc(NC(=O)C23CCC(C)(C(=O)[C@H]2Br)C3(C)C)cc1 (some centres undefined),1.6,1.2
CC(OC(=O)C1=COCCO1)C(=O)Nc1cccc(S(=O)(=O)N2CCOCC2)c1 (centres undefined),0.16,0.6
COc1ccc(OC)c(/C=C/C(=O)OCC(=O)c2c(N)n(C)c(=O)n(C)c2=O)c1,1.5,-1.1
Cc1ccc(S(=O)(=O)NC(=O)c2cc(C)n(C3CC3)c2C)cc1,2,-0.61
CCN1CCN(C(=O)CCc2ccc(S(=O)(=O)NCCc3ccccc3)cc2)CC1,0.1,-0.23
CN1CCCN(CC(O)COCc2cccs2)CC1 (centres undefined),1.1,0.96
Cn1nnnc1SCC(=O)c1cccs1,0.39,-0.65
Cc1cccc(Nc2ccccc2C(=O)OCC(=O)NCc2ccco2)c1C,1.3,-0.14
CCN(C(=O)c1ccc(S(=O)(=O)N2CCCC2)cc1)C1CCS(=O)(=O)C1 (centres undefined),1.2,-0.39
CCN(C1CCS(=O)(=O)C1)S(=O)(=O)c1cccs1 (centres undefined),0.96,0.1
Cc1nn(C(C)C(=O)NC2CC2)c(=O)c2nn(-c3ccccc3)c(C)c12 (centres undefined),2.1,0.01
COCCNC(=O)CCc1nnc2ccc(N3CCC(C)CC3)nn12,1.9,0.16
COc1ccc(NC(=O)C2CCCCN2N)cc1OC (centres undefined),0.54,-0.12
CC(=O)N/C(=C\c1ccccc1)C(=O)OCC(=O)N(CC(C)C)c1c(N)n(Cc2ccccc2)c(=O)[nH]c1=O,2.1,0.06
S=c1[nH]nc(Cc2ccc(Br)cc2)n1/N=C/c1ccc(Cl)cc1,0.44,-1.7
CCOC(=O)CN1CC23C=CC(O2)C(C(=O)Nc2ccc(OCC)cc2)C3C1=O (centres undefined),0.09,4.3

Random excerpt: 3 records from the list
smiles,KCNQ2 pot,KCNQ2 pot baseline
Cc1ccc(NC(=O)C23CCC(C)(C(=O)[C@H]2Br)C3(C)C)cc1 (some centres undefined),1.6,1.2
CN(C)/N=C/c1ccc(N2CCOCC2)cc1,2.5,-1.1
Cc1ccc(-c2ccc(CCC(=O)O)n2NC(=O)c2cccs2)cc1,0.15,-0.03

(list continues)
smiles,KCNQ2 pot,KCNQ2 pot baseline
CC(/C=C/c1ccccc1)=N\NC(=O)c1cc(C)nc2ccccc12,0.03,-1.2
CCc1nnc(NC(=O)c2ccc(NC(=O)C(C)C)cc2)s1,0.66,0.96
CC(O)Cc1cn(CC(=O)N2CCNCC2)nn1 (centres undefined),0.05,1.3
O=C(COc1ccc(Cl)cc1)NCc1nnc(SCC(=O)NCCc2ccccc2)o1,0.65,-0.07
CS/C(=N\S(=O)(=O)c1cccs1)Nc1ccc(Cl)cc1,0.73,0.06
Cc1ccc(S(=O)(=O)NCCOc2nc(N(C)C)nc(N(C)C)n2)cc1,0.64,-0.61
CCOc1ccc(NC(=O)Nc2cc(C)ccc2OC)cc1,0.55,0.82
CC(C)(C)SCCNC(=O)COc1ccccc1,0.36,0.17
COc1cccc(CSc2nc3nc(C)cc(C)n3n2)c1,0.53,1.2
Cc1c(Br)cc(C(=O)N2CCN(CCO)CC2)c(C)c1C,1.1,1
O=C1NC(=O)/C(=C/c2ccccc2OCc2ccccc2)S1,0.43,-0.24
N#CCSc1nc2ccccc2c(=O)n1CCC(=O)NC1CCCCC1,0.86,-0.98
CC(=O)Nc1cc(C(=O)NCc2ccco2)ccc1Sc1ccc(C)cc1,0.98,0.68
Cc1ccc(OCC(=O)Nc2cc(C)on2)c([N+](=O)[O-])n1,0.04,0.76
COc1ccc(-c2c(C#N)c(N)nc3c2c(=O)n(C)c(=O)n3C)cc1Cl,0.41,0.78
COc1ccc(NC(=O)C2CC(=O)OC23CCCCC3)cc1 (centres undefined),0.04,1.3
COCCCNC(=S)Nc1ccccc1C,0.54,0.78
C=CCS(=O)(=O)N1CCCC(N2CCN(c3ccccc3OC)CC2)C1 (centres undefined),0.9,-0.79
COc1ccc(CN(CC(=O)NC2CCCC2)C(=O)CCC(=O)Nc2nc(C)cs2)cc1,0.66,2.3
CN(C)C(=O)CSc1nc2ccccc2n1CC(=O)N1CCN(c2ccccc2)CC1,0.01,-1.6

Continued:
smiles,KCNQ2 pot,KCNQ2 pot baseline
COC(=O)c1sc(NC(=O)/C=C/c2ccccc2Cl)nc1C,1.4,0.35
Cc1cccn2c(=O)c3cc(C(=O)NC4CCCC4)c(=N)n(C4CCCC4)c3nc12,2.1,0.93
CCOC(CNC(=O)C(=O)Nc1cc2c3c(c1)CCN3C(=O)CC2)OCC,1.2,-0.8
Cn1cc(CNC(=O)c2cc(COc3ccc4c(c3)CCCC4)on2)cn1,1.9,-1.2
Cc1ccc(C2=NCCn3c2c2ccccc2[n+]3[O-])cc1,0.56,0.43
COc1cc(-c2nnc(SCC(=O)c3cc(C)n(CC4CCCO4)c3C)o2)cc(OC)c1OC (centres undefined),2.2,1.7
CCOc1cc(/C=C2\CN(C)C/C(=C\c3ccc(O)c(OCC)c3)C2=O)ccc1O,0.17,0.04
COc1ccccc1C(=O)NNC(=O)c1ccccc1[N+](=O)[O-],0.48,2.1
COc1cc([N+](=O)[O-])ccc1NC(=O)C[n+]1ccccc1C,0.75,2.6
COc1cc(OC)cc(C(=O)OCCNC(=O)Cn2cnc3c2c(=O)n(C)c(=O)n3C)c1,0.88,-1.2
CCOC(=O)COc1ccc2nsnc2c1,1.9,1.2
CCCCCCCCCCCC1=C(O)C(=O)C=C(O)C1=O,0.01,-0.82
O=C(CN1C(=O)c2ccccc2S1(=O)=O)N1CCN(c2ccc(F)cc2)CC1,0.5,0.2
O=C(O)COc1ccc(-c2nccc(-c3cccs3)n2)cc1,0.09,-1.2
CC1CCN(C(=O)Cn2nnc(-c3ccccc3)n2)CC1,0.41,-0.8
CC(C)CCNc1ncnc2c1cnn2Cc1ccccc1Cl,2.2,-1.3
CCOC(=O)c1c(NC(=O)c2nn(C)cc2[N+](=O)[O-])sc(C)c1C,0.01,0.28
CCn1cc(/C=C/C(=O)Nc2ccn(Cc3c(F)c(F)cc(F)c3F)n2)cn1,0.33,0.39
O=C(Nc1ccc(-c2n[nH]c(=S)o2)cc1)c1ccccc1Cl,0.91,0
CN(c1cc(=O)n2ccccc2n1)C1CCCCC1,1.3,-1.9

(list continues)
smiles,KCNQ2 pot,KCNQ2 pot baseline
Cn1c(=O)cc(NCc2ccccc2)[nH]c1=O,1.3,-0.68
COc1ccccc1OCCC(=O)OCC(=O)NCc1ccccc1,0.08,-0.54
COCCCNC(=O)c1ccc(CS(=O)(=O)c2ccccc2C)o1,0.04,-1.1
CSc1ccc(CCNC(=O)CN2C(=O)c3cccnc3Oc3ccc(C)cc32)cc1,0.79,0.64
COc1ccc2c(c1)C(c1ccc(Cl)cc1)NC(=O)C2 (centres undefined),1.2,0.61
Cn1cccc1-c1nc2ccc(NC(=O)c3ccco3)cc2[nH]1,1.4,-0.36
Cc1cc([N+](=O)[O-])nn1CCCC(=O)Nc1ccc2c(c1)OCO2,0.57,0.08
COc1ccc2oc(C(=O)c3ccccc3)c(N)c2c1,2,0.67
CCN(CC)S(=O)(=O)c1ccc(OC)c(NC(=O)c2cc(=O)[nH]c3ccccc23)c1,0.22,0.05
CCOC(=O)c1c(C)nn(-c2ccc(NC(=O)c3c(C)noc3C)cc2)c1C,1.1,2.3
COc1cccc(C(=O)CC(C(=O)O)c2ccc(F)cc2)c1 (centres undefined),0.59,0.17
CC(=O)N=C1SC2CS(=O)(=O)CC2N1Cc1ccc(C)cc1 (centres undefined),0.5,-1.3
CCCn1c(=O)n(C)c(=O)c2c(SCC(=O)NCC(c3ccccc3)N(C)C)nc(CC(C)C)nc21 (centres undefined),0.46,-3.6
COc1cccc(O)c1CN1CCC(C(=O)Nc2ccc(Oc3cccnc3)cc2)CC1,1,-2.1
Cc1cc(NC(=O)CSc2nnc(-c3ccncc3)n2-c2ccc(F)cc2)no1,0.08,-0.09
COCCNC(=O)c1nn2cccnc2c1Cl,0.13,-1
O=C(Nc1ccc(Cl)cc1F)C1CCN(S(=O)(=O)c2cccnc2)CC1,0.04,0.64
O=C(CCCl)N1CCN(c2nc(-c3ccccc3)cs2)CC1,1,0.39
CCOc1ccc(NC(=O)CN2CCN(CC(=O)Nc3ccccc3OC)CC2)cc1,1.1,-0.79
CCOC(=O)C1CCCN(C(=O)c2cc3ccc(OC)cc3[nH]2)C1 (centres undefined),0.13,-1.1

Record cards, as listed above. Order of values: KCNQ2 pot	KCNQ2 pot baseline
`CCOC(=O)COc1ccc2nsnc2c1` is entered as 1.9	1.2
`COc1ccc(CN(CC(=O)NC2CCCC2)C(=O)CCC(=O)Nc2nc(C)cs2)cc1` is entered as 0.66	2.3
`CCOc1ccc(NC(=O)Nc2cc(C)ccc2OC)cc1` is entered as 0.55	0.82

(more compounds)
smiles,KCNQ2 pot,KCNQ2 pot baseline
CC(=O)Nc1nnc(SCC(=O)Nc2nc(C)cs2)s1,0.67,2.6
O=C(Nc1ccccc1)C1=C[C@H](C2CC2)C[C@H](OCCCCO)O1,0.79,-0.01
CCOc1ccc(S(=O)(=O)Nc2ccccc2C(=O)N/N=C/c2c(OC)ccc3ccccc23)cc1,0.9,-1.5
CC(=O)Nc1ccc(CN2CCN(c3cccc(C(F)(F)F)c3)CC2)cc1,0.2,1
COc1ccc(-c2cc3ncc(C(C)=O)c(C)n3n2)cc1,1.9,6.7
Cc1ccccc1/C(N)=N/OC(=O)c1cccs1,0.35,0.67
Cc1nc([N+](=O)[O-])cn1CC(=O)NCCCO,0.06,0.03
O=C(CNC(=O)[C@@H]1Cc2ccccc2CN1)Nc1ccc2c(c1)OCO2,1.3,0.62
COc1ccc(O)c(C2(O)C(=O)c3ccccc3C2=O)c1,0.27,-0.37
CCCCSc1nc(C)c(C(C)=O)cc1C#N,0.54,0.15
O=C(CCCc1ccccc1)c1ccccc1,0.14,-0.01
COc1ccc(NS(=O)(=O)c2ccc(C)c(C(=O)N(C)CCc3ccc(OC)c(OC)c3)c2)cc1,0.4,-1.6
O=C(COC(=O)c1ccc(S(=O)(=O)N2CCCC2)cc1)Nc1ccc(F)cc1F,0.05,0.49
CCC(=O)NC(C)C(c1cccs1)N1CCN(Cc2ccccc2)CC1 (centres undefined),0.32,0.78
COc1ccc2ccccc2c1/C=N/NC(=O)c1ccc([N+](=O)[O-])cc1,0.02,0.09
N#CC1=C(N)Oc2cc(O)ccc2C1c1ccncc1 (centres undefined),1.2,-0.6
CCOC(=O)N1CCN(C(=O)COC(=O)CSc2ccc([N+](=O)[O-])cc2)CC1,0.05,0.68
C#CCSc1n[nH]c(-c2ccco2)n1,0.96,-0.25
CCN(CC)c1c([N+](=O)[O-])c(=O)sc2ccccc12,0.67,-1.6

Bioassay records deposited in PubChem by Johns Hopkins Ion Channel Center.
